# Screens deposited in PubChem by National Center for Advancing Translational Sciences (NCATS).
# StopGo reporter: High Throughput Screening for Foot and Mouth Disease Virus Antivirals | human cells with a luciferase reporter of 2A StopGo recoding; control for the full effect not named in the record | Potency, µM (highest dose often 57.9 µM), without a hit: top-dose signal change, negative = less light | hit rate 1.2% among 410,000; active = well fitted falling curve with a large enough effect; inconclusive = small, poorly fitted or top-dose-only effect; inactive = no such curve, though single readings can be large or run the other way; tested in HEK293T cells; also: % is scaled to controls: 0 for no effect and ±100 for the full control effect; nearly all actives have a fitted effect of over 45% in size; luciferase light after 4 h
# Lassa entry inh: qHTS for Inhibitors of binding or entry into cells for Lassa Virus; Potency, µM (titrated, usually from 37.9 µM), for inactives: at the top dose activity change, negative = inhibition, most hits filed as inhibitors; Lassa virus pseudotype entry inhibition, cell reporter; control for the full effect not named in the record; hit rate 1.2% among 300,000; active means well fitted inhibition curve with a large enough effect; inconclusive means small, poorly fitted or top-dose-only effect, or effect the other way; inactive means flat fitted curve, though single readings scatter; tested in HEK293 cells; also: % is scaled to controls: 0 for no effect and ±100 for the full control effect; nearly all actives have a fitted effect of over 50% in size; luciferase read-out
# MARV entry inh: qHTS for inhibitors of binding or entry into cells for Marburg Virus | Potency, µM (top dose mostly 37.8 µM), for the others: at the highest dose activity change, negative = inhibition, most hits filed as inhibitors | AID 540276, 2011 | hit rate 1.8% among 300,000 | Marburg virus pseudotyped entry inhibition, cell reporter; control for the full effect not named in the record; about a third of the inactives were read at about 46 µM; active = well fitted inhibition curve with a large enough effect; inconclusive = small, poorly fitted or top-dose-only effect, or effect the other way; inactive = flat fitted curve, though single readings scatter; tested in HEK293 cells; about a fifth of its hits are not listed in these tables; also: % is scaled to controls: 0 for no effect and ±100 for the full control effect; luciferase read-out
# Cruzain Triton: qHTS Assay for Promiscuous and Specific Inhibitors of Cruzain (with detergent); hit rate 0.43% among 200,000; AID 1478, 2009; Potency, µM, for the others: max response, negative = inhibition, usual class: inhibitors; purified cruzain, Z-FR-AMC fluorescence, 0.01% Triton;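 also: plate controls were neutral wells for no effect and buffer without enzyme for full effect; nearly all actives have a fitted effect of over 40% in size; top concentration of the series not given in the record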
# Target sequence (P25779 123-467 limits assumed): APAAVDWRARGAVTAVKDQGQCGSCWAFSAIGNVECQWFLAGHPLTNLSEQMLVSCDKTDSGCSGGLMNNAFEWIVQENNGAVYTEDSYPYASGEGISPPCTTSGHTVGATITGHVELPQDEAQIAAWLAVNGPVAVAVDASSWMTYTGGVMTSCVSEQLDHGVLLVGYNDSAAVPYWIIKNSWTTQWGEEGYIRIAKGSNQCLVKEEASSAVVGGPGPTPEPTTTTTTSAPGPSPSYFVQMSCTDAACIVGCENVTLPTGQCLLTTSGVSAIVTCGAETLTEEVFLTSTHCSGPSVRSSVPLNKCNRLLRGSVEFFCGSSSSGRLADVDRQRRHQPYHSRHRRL
#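 15 min RT preincubation of 1.5 nM cruzain with compound, then 2 uM Z-FR-AMC added; kinetic AMC fluorescence, 60 s delta. Triton X-100 0.01%, pH 5.5.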
# SARS PLpro yeast: qHTS of Yeast-based Assay for SARS-CoV PLP; S. cerevisiae expressing SARS-CoV PLpro, growth rescue; control for the full effect not named in the record; Potency, µM (titrated, usually from 32.9 µM), inactives show at the highest dose activity, positive = growth rescue; hit rate 0.19% among 330,000; active means well fitted rising curve with a large enough effect; inconclusive means small, poorly fitted or top-dose-only effect; inactive means no such curve, though single readings can be large or run the other way; also: 0% is about no effect; nearly all actives have a fitted effect of over 55% in size; growth read by luminescence after 48 h
# RE007 growth inh: qHTS Assay for Inhibitors of the HIV-1 protein Vpr | S. pombe RE007 Vpr strain, BacTiter-Glo ATP luminescence, 24 h; control for the full effect not named in the record | hit rate 0.21% among 360,000 | Potency, µM (top dose mostly 92.2 µM), inactives show at the top dose activity change, negative = less growth; active = well fitted falling curve with a large enough effect; inconclusive = small, poorly fitted or top-dose-only effect; inactive = no such curve, though single readings can be large or run the other way;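 also: % is scaled to controls: 0 for no effect and ±100 for the full control effect; nearly all actives have a fitted effect of over 50% in size; the assay follows cell death caused by Vpr and the record does not say whether a fall means rescue or toxicity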
#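 Fission yeast RE007 carrying one integrated HIV-1 vpr copy, seeded at OD 0.01 in PMG+AL medium with 23 nL pinned compound. Grown 24 h at 30 degrees; viability read by BacTiter-Glo luminescence after 5 min.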
# Cruzain inh noDet: qHTS Assay for Promiscuous and Specific Inhibitors of Cruzain (without detergent); Cruzipain (Trypanosoma cruzi), P25779; purified cruzain, Z-FR-AMC fluorescence, no detergent; Potency, µM, for the others: max response, negative = inhibition, usual class: inhibitors; hit rate 2.3% among 200,000; AID 1476, 2009;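 also: plate controls were enzyme without inhibitor for no effect and buffer without enzyme for full effect; nearly all actives have a fitted effect of over 40% in size; top concentration of the series not given in the record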
#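 Detergent-free condition (0.00005% Triton X-100) in acetate buffer pH 5.5 with DTT. 1.5 nM enzyme and compound were pre-mixed 15 min, then 2 uM Z-FR-AMC substrate added; reaction progress from fluorescence change between first and third reads (60 s).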
# NS1 function inh: qHTS Assay for Inhibitors of Influenza NS1 Protein Function; S. cerevisiae slowed by influenza A NS1, growth recovery by OD600; AID 2326, 2010; Potency, µM (doses to about 46.1 µM), without a hit: at the highest dose activity, positive = more growth; hit rate 0.4% among 270,000; active means well fitted rising curve with a large enough effect; inconclusive means small, poorly fitted or top-dose-only effect; inactive means no such curve, though single readings can be large or run the other way; also: nearly all actives have a fitted effect of over 50% in size
#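 Read-out: OD600 growth recovery of NS1-expressing budding yeast. Cells grown overnight at 30C in -URA glucose medium, washed, resuspended and diluted 1:100 in 2% galactose assay medium, pH 6.0. Same strain lacking NS1 served as positive control.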
# Active calls of the source: *; ? = inconclusive; . = no result given; [ ] = remark or other dose. Unless noted, calls follow the shape of the dose curve; as a rule, active = well fitted curve in the direction sought with a large enough effect; inconclusive = small, poorly fitted or top-dose-only effect, or another doubt; inactive = no such curve, though single readings can be large; an effect the other way counts as inactive or inconclusive. Potency is read from the fitted curve at half-maximal effect.
SMILES,StopGo reporter,Lassa entry inh,MARV entry inh,Cruzain Triton,SARS PLpro yeast,RE007 growth inh,Cruzain inh noDet,NS1 function inh
COc1ccc2cc3cc(C(=O)NCCN4CCc5ccccc5C4)sc3nc2c1,12%,3%,?,-11%,-2%,-4%,4%,-3%
CC(C)NS(=O)(=O)c1ccc(OCC(=O)N2CCN(c3ccccc3F)CC2)cc1,-30%,-4%[46.1 µM],-15%[46.1 µM],-1.7%,.,.,2%,.
O=S(=O)(Nc1nc2ccccc2nc1N1CCc2ccccc2C1)c1ccc(Cl)cc1,9%,?,?,-4.6%,5%,-8%,-76%,-2%
N/C(=N\OC(=O)CCCN1C(=O)c2ccccc2C1=O)c1ccc(Br)cc1,-16%,-15%,-7%,.,.,3%,.,.
CCc1nnc(NC(=O)C2c3ccccc3Oc3ccccc32)s1,-10%,2%,13%,-19%,-27%,-15%,0%,-6%
CCCOc1ccccc1C(=O)N1CCCCC1CCN1CCOCC1 (stereo not drawn),-7%,-1%[46.1 µM],1%[46.1 µM],0.7%,.,.,-12%,.
COC(=O)CSc1nc2cc(C)ccc2cc1C#N,44%[activator],-4%,-5%,-2.1%,0%,-5%,0%,-18%
Cc1oc2c(c1C(=O)Nc1ccc(C(=O)O)cc1)CCCC2,27%,2%,-10%,0.4%,11%,1%,5%,-15%
C=C(C)Cn1c(SCC(=O)Nc2cccc(C)c2)nc2sc3c(c2c1=O)CCCC3,-1%,-2%[46.1 µM],6%[46.1 µM],-4.2%,.,.,-19%,.
CCC(C)(C)NC(=O)C(c1ccccc1Cl)N(C(=O)CCC(=O)Nc1cc(C)on1)c1ccc(NC(C)=O)cc1 (stereo not drawn),-4%,7%[46.1 µM],-5%[46.1 µM],.,2%,5%,.,23%
O=[N+]([O-])c1cc2c(c3cccnc13)COCO2,-17%,14%,-16%,.,.,-20%,.,.
COc1ccccc1Nc1nc(N)nc(CN2CCc3ccccc3C2)n1,-21%,-11%,-17%,-5.8%,17%,-7%,-4%,5%
CCOc1ccccc1OCC(=O)OCc1csc(CC(=O)Nc2ccccc2C)n1,-10%,-1%,-6%,.,-1%,19%,.,.
CCOc1ccccc1OCCCC(=O)N(CC)CC(=O)Nc1ccc(NC(C)=O)cc1,-14%,-6%,24%,.,-7%,-13%,.,.
COCCCNC(=O)/C(C#N)=C/c1c(N2CCN(C)CC2)nc2ccccn2c1=O,-2%,.,.,.,17%,-1%,.,4%
O=C(O)c1cc(=S)nc[nH]1,3%,17%[46.1 µM],24%[46.1 µM],.,.,44%,.,.
O=C(N/N=C\c1ccc(O)c([N+](=O)[O-])c1)c1ccccc1-n1cccc1,-26%,-5%,-9%,-4.3%,4%,-14%,-2%,-21%
CC(=O)Nc1ccc(S(=O)(=O)NCCc2ccc(F)cc2)cc1,47%[activator],-36%[14.3 µM],17%,1.0%,0%,-3%,4%,4%
O=C(Cc1ccccc1)Nc1ccc(C(=O)Nc2ccccc2C(=O)O)cc1,33%[activator],.,.,.,-1%,6%,.,8%
CC1Cc2ccccc2N1C(=O)CSc1nc(-c2ccco2)cc(C(F)(F)F)n1 (stereo not drawn),-26%,2%,8%,-10%,5%,9%,-2%,-14%
C=CCN1C(=O)C(CC(=O)Nc2ccccc2)SC1=Nc1ccc(S(N)(=O)=O)cc1 (stereo not drawn),?,-27%,-13%,-2.5%,7%,14%,-6%,20%
Cc1cc(C)c(NC(=O)CSc2nc(=O)n(Cc3ccncc3)c3c2CCC3)c(C)c1,13%,-7%[46.1 µM],.,-3.2%,.,.,-12%,.
CC1CN(C(=O)Nc2ccc(F)cc2F)CC(C)O1 (stereo not drawn),1%,0%[46.1 µM],-1%[46.1 µM],.,-4%,4%,.,-2%
COc1ccc(C(=O)OC2CCN(c3ncc(C(F)(F)F)cc3Cl)CC2)cc1,-11%,?,4%,-3.9%,-5%,-1%,-5%,7%
CN(Cc1ccccc1)S(=O)(=O)c1ccc(OCC(=O)NCc2ccncc2)cc1,-3%,.,?,.,-2%,-5%,.,1%
S=c1[nH]nc(C2CCCCC2)n1/N=C/c1ccc(Br)cc1,-19%,.,.,.,-2%,20%,.,-2%
Cc1cc(NC(=O)CSCC(=O)Nc2ccccc2Oc2ccccc2)no1,?,?,2.8µM*,.,4%,-17%,.,.
Cc1cc(C)nc(N/N=C/c2cc3c(cc2[N+](=O)[O-])OCO3)n1,-19%,-3%[46.1 µM],?,.,1%,1%,.,.
C=CCn1c(=O)/c(=C/c2ccc(O)cc2)s/c1=C(/C#N)c1nnc2n1CCCCC2,.,?,-15%,-7.6%,0%,-12%,6%,-53%
CCOC(=O)c1sc(N(Cc2ccccc2)C(=O)CSc2nnc(C3CC3)n2N)nc1C,35%[activator],-17%,-14%,0.5%,?,18%,-9%,-48%
Nc1ccc(C2(c3ccc(N)cc3)CCCCC2)cc1,-19%,23%,4%[46.1 µM],.,2%,-7%,.,?
CC(C)C(NC(=O)/C=C/c1ccc(F)cc1)C(C)C,2%,-1%,-2%,1.7%,9%,3%,13%,1%
CCCCOc1ccccc1N,-15%,17%,7%,2.7%,-1%,4%,2%,10%
COC(=O)c1oc2ccccc2c1N,20%,?,?,-0.8%,-2%,5%,6%,-10%
O=C(CCCNS(=O)(=O)c1cccc2nsnc12)NCCc1ccccc1,0%,-1%,0%,4.5%,2%,-4%,5%,2%
Cc1cc[n+](CCc2ccccc2)cc1C,47%[activator],.,.,.,2%,-3%,.,3%
CCOC(=O)c1ccc(NC(=O)c2nc[nH]c2C(=O)N[C@@H](CC(C)C)C(=O)OCc2ccccc2)cc1,-2%,.,.,.,2%,6%,.,6%
CCCc1cnc2c(c1SCC(=O)N(C)c1ccccc1)c(=O)n(C)c(=O)n2C,-3%,-9%[46.1 µM],.,-0.4%,.,.,-3%,.
CCOC(=O)c1c(NC(=O)c2ccc(S(=O)(=O)N(CC(C)C)CC(C)C)cc2)sc2c1CCN(CC)C2,-17%,?,.,0.4%,.,.,9%,.
CCCCOC(=O)Nc1cccc(Cl)c1C,78%[activator],34%,11%,0.1%,0%,-2%,1%,4%
COCC(=O)n1nc(-c2ccccc2)nc1NCc1ccc(N(C)C)cc1,59%[activator],?,20%,.,-1%,9%,.,4%
N#C/C(=C1/CCCCCN1)c1nc2ccccc2s1,.,-5%,-28%,-5.3%,3%,-9%,-3%,-38%
Cc1ccc(NC(=O)Cn2c(=O)cnc3ccccc32)cc1S(=O)(=O)N(C)C,?,-10%,-6%,-3.3%,?,-5%,-7%,-6%
Cc1ccc(CNC(=O)c2cc3c(=O)oc4ccc(C)cc4c3s2)cc1,-7%,10%[46.1 µM],-5%[46.1 µM],2.2%,.,.,-7%,.
C=C(C)CNC(=S)N/N=C/c1c(F)cccc1F,5%,-16%[46.1 µM],14%[46.1 µM],.,7%,-21%,.,.
Cn1c(SCC(=O)C(C)(C)C)nnc1-c1cccnc1,21%,4%,-14%,3.0%,5%,3%,-14%,-1%
O=C(NCCC1CCCCN1S(=O)(=O)c1ccc(Cl)cc1)C(=O)NCc1ccco1 (stereo not drawn),-13%,?,?,.,-3%,-2%,.,.
Cc1ccc(S(=O)(=O)N(C)C)cc1NC(=O)C1CCCC1,-5%,-18%,3%,-2.1%,14%,5%,-5%,4%
O=C(Cc1ccsc1)N1CCN(S(=O)(=O)c2cc(C(F)(F)F)cc(C(F)(F)F)c2)CC1,-13%,6%,3%,.,2%,1%,.,11%
NC(=O)CC1C(=O)N(c2ccc(F)cc2)C(=O)N1NC(=O)CCc1ccccc1 (stereo not drawn),-19%,?,-6%[46.1 µM],.,0%,4%,.,3%
CCONc1ncnc2nonc12,-10%,-15%,19%[46.1 µM],-2.0%,-11%,7%,0%,-1%
CCCCOc1ccc(C(=O)N(CC)CC(=O)NCc2cccs2)cc1,14%,?,-26%,.,-2%,-1%,.,-23%
CCOC(=O)C1CCCN(S(=O)(=O)Cc2ccc(Cl)cc2)C1 (stereo not drawn),12%,14%,-10%,.,-4%,-6%,.,5%
CCOC(=O)c1[nH]ncc1CN1CCN(Cc2ccc(C)cc2)C(CCO)C1 (stereo not drawn),-21%,-9%,1%[46.1 µM],.,0%,26%,.,2%
COc1cc(CN2CCCC(N3CCN(c4ccccc4C)CC3)C2)cc(Cl)c1O (stereo not drawn),-26%,-1%[46.1 µM],?,.,1%,-1%,.,0%
COc1ccccc1N1CCN(C(=O)c2oc3ccccc3c2N)CC1,-15%,.,?,-11%,.,.,2%,.
Cn1c(=O)[nH]c(=O)c2c1nc(N(CCO)Cc1ccccc1)n2CCCc1ccccc1,0%,.,.,-4.2%,3%,1%,?,-11%
COc1cc(CCN2C(=O)c3cccc4cccc(c34)C2=O)c(S(=O)(=O)NCCCO)cc1OC,30%,-1%,-1%,-8.4%,-12%,-10%,?,5%
O=C(/C=C/c1ccccc1)N1CCN(C(=O)c2ccco2)CC1,0%,14%,19%,-5.5%,-15%,10%,-4%,1%
CCc1ccccc1N(CC(=O)NCc1ccco1)C(=O)CCC(=O)Nc1nccs1,-4%,-18%[46.1 µM],-5%[46.1 µM],.,3%,2%,.,3%
# Additional entries:
SMILES,StopGo reporter,Lassa entry inh,MARV entry inh,Cruzain Triton,SARS PLpro yeast,RE007 growth inh,Cruzain inh noDet,NS1 function inh
O=Cc1ccc(OCC(=O)N2CCc3ccccc32)c(Br)c1,37%[activator],-3%,-2%,.,3%,12%,.,.
COC(=O)c1c(C)oc2ccc(N(C(=O)c3ccncc3)S(=O)(=O)c3ccc(OC)cc3)cc12,-22%,-27%[46.1 µM],?,-4.1%,.,.,-10%,.
COc1ccc(C(=O)Nc2ccc(-c3nc4ncccc4o3)cc2)cc1,-14%,3%[46.1 µM],4%[46.1 µM],-2.2%,.,.,-2%,.
COc1ccc(/C=N\Nc2ccccn2)c(OC)c1,56%[activator],.,.,.,0%,-6%,.,-9%
CCOc1ccc(NC(c2ccc(Cl)cc2)c2nnc(-c3cccc(F)c3)o2)cc1 (stereo not drawn),-7%,7%[46.1 µM],?,-3.4%,.,.,0%,.
